Assay outcomes: PubChem, several laboratories
AF4-AF9 inh: inhibitors of AF4 peptide binding to AF9, primary screen, biochemical, AlphaScreen, biotin-AF4 peptide, FLAG-AF9, single point. inhibition, % at 10 µM. hit rate 0.47% among 350,000. Protein AF-9 (Homo sapiens), P42568;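 active = every replicate reaching a set inhibition limit, whatever the replicate mean, cut at about 25% in these data; inconclusive = mean inhibition reaches that limit but some replicates miss it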;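 also: 0% = plate neutral control median and 100% = total signal loss; the record names both 10 and 1 µM as test concentration; the first replicate is given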
Vif TR-FRET: inhibitors of Vif binding to APOBEC3G peptide, primary screen, biochemical, TR-FRET, GST-Vif 1-94, biotin-A3G peptide, dose response retest (AID 1117319). Virion infectivity factor (Human immunodeficiency virus type 1 group M subtype B (isolate …. TR-FRET GST-Vif / biotin-A3G peptide binding; higher % means a stronger effect; test concentration not given here; strong numbers were not always called active. one-dose inhibition, %; IC50 in µM for titrated hits. hit rate 0.57% among 260,000;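 active = above the screen mean plus three standard deviations and confirmed in dose response; inconclusive = results disagree or hit not tested in dose response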;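 also: Vif residues 1-94 fused to GST binding biotinylated APOBEC3G peptide 110-148; 0% = full assay without inhibitor and 100% = GST in place of GST-Vif; retest series ran down from 100 µM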
Beta cell apopt: inhibitors of cytokine-induced beta cell apoptosis, primary screen, luminescence | protection from apoptosis, % (concentration not given with the values) | hit rate 0.8% among 300,000 | INS-1E cytokine-induced death, ATP luminescence, 48 h; percent of positive-control rescue, neutral wells zero;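 active = all replicates at 75% or more, or half of them and the mean; inconclusive = half reach 75% but not the mean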;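 also: 0% = cytokine-treated negative control wells and 100% = positive control rescue; higher means more ATP so stronger rescue from cytokine killing; wells of about 40 µL received 100 nL stock; the first replicate is given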
T cruzi repl: inhibitors of intracellular T. cruzi growth, primary screen, luminescence, NIH3T3 host cells | inhibition, % (no concentration beside the values) | AID 1885, 2009 | hit rate 1.4% among 300,000 | T. cruzi beta-gal in NIH3T3, 90 h;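 active = mean inhibition across valid replicates above about 55%, limit read from the data; inconclusive = mean below that limit but half or more replicates reach it; inactive = mean below it, under half of replicates reach it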;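 also: signal also drops with host cell toxicity which is not excluded here; 0% = plate median of DMSO wells and 100% = zero luminescence signal; higher percent means less beta-gal luminescence so fewer parasites; stock transfer was 50 nL into about 50 µL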
Bfl-1 A1 inh: caspase 3/7 activation in MEF A1-2A-BIM cells, primary screen, A1 inhibitor project, cell-based, luminescence, HTS | caspase activation, % (concentration not given with the values) | Caspase-Glo 3/7 luminescence, 3 h; percent of clofoctol response, vehicle zero | hit rate 0.066% among 330,000 | AID 2462, 2010;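 active = over half of replicate activation scores above 10%, or exactly half above 10 with the replicate mean above 10; inconclusive = replicate mean below 10 yet half the replicates above 10; inactive = over half of replicates below 10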;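 also: wells of about 30 µL received 50 nL stock; many hits fall short of the cut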
LANA-H2A inh: blockers of LANA interaction with H2A/H2B – biochemical, FP readout, HTS, primary screen; Protein LANA1 (Human herpesvirus 8 type P (isolate GK18)), Q9QR71; cell-free LANA-H2A/H2B peptide, fluorescence polarization; inhibition, % (concentration not given with the values); hit rate 0.6% among 320,000; AID 2629, 2010; in the data active = inhibition mostly above about 10%, no sharp cut-off; inactive = mostly below about 6.7%;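 also: stock transfer was 7.5 nL into about 10 µL; 0% = median of vehicle wells and 100% = median of positive control wells; one replicate is shown; the record names a cut of 25% in any replicate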
Target sequence (Q9QR71 whole entry, looked up): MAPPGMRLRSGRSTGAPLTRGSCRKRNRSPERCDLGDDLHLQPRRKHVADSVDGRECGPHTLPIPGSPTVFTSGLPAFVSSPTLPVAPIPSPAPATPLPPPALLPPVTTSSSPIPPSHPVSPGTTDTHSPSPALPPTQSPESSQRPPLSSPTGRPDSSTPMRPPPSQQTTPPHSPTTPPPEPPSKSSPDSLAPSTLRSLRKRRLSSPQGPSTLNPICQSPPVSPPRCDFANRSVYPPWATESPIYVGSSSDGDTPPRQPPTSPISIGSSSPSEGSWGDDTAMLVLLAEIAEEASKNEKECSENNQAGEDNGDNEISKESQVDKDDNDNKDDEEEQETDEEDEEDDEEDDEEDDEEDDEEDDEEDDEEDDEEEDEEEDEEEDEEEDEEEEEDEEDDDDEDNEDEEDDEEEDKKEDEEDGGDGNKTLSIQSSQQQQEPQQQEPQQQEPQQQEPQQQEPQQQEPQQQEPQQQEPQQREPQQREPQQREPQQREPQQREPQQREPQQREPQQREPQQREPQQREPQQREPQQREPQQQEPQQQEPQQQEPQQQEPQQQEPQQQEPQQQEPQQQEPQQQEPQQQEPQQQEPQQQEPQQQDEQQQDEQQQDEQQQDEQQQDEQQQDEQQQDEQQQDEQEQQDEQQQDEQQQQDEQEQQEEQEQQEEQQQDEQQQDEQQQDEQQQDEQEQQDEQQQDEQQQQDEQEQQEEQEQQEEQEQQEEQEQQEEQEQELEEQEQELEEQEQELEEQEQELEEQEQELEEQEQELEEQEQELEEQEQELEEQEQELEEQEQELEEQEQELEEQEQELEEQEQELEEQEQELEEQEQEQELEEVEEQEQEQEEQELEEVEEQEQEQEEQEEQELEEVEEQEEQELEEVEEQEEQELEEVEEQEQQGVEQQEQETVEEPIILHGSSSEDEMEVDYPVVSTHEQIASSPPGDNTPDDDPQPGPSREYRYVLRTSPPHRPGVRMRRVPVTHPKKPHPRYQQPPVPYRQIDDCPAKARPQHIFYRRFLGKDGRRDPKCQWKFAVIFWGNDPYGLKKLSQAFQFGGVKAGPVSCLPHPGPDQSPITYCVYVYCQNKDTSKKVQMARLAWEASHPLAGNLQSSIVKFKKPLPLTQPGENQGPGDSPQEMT
RanGTP-Imp inh: inhibitors of RanGTP-importin-beta interaction, primary screen, biochemical, FRET, CFP-Ran, YFP-importin-beta, homogeneous; Ran GTPase (GTP-bound) - importin-beta complex; cell-free CFP-Ran/YFP-importin-beta FRET ratio; inhibition, % (no concentration beside the values); hit rate 1.1% among 300,000; AID 2216, 2009;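 active = most replicates above 15%; inconclusive = exactly half above 15%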;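 also: 0% = DMSO wells and 100% = Ran loaded with GDP instead of GTP; wells of about 40 µL received 100 nL stock; the first replicate is given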
Calb FLC: C. albicans growth inhibition with fluconazole, primary screen, CaCi-2 strain, Alamar Blue fluorescence; C. albicans CaCi-2 (fluconazole-resistant clinical isolate) + fluconazole, 48 h; growth inhibition, % (test concentration not listed); hit rate 0.57% among 300,000; AID 1979, 2009;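 active = most replicates above 75%; inconclusive = exactly half above 75%; inactive = most below 75%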;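 also: all wells also contain fluconazole at 8 µg/ml as a sub-toxic cotreatment; 0% = median of DMSO wells and 100% = median of geldanamycin control wells; wells of about 8 µL received 7.5 nL stock; the first replicate is given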
The depositor's hits bear a star; i = inactive; u = inconclusive; x = no result given; & = joins results of further samples.

SMILES	AF4-AF9 inh	Vif TR-FRET	Beta cell apopt	T cruzi repl	Bfl-1 A1 inh	LANA-H2A inh	RanGTP-Imp inh	Calb FLC
CCOC(=O)C1(Cc2ccccc2)CCN(Cc2cn[nH]c2-c2ccccc2)CC1	2.8	u	18	-1	1.8	2.8	-1.3	-13
COc1ccc(C)cc1NC(=O)NCCCCc1ccccc1	-3.6	11%	6	-9	0.4	-7.0	-0.3	1
COc1cc(NC(=O)NC(C)(C(F)(F)F)C(F)(F)F)cc(OC)c1OC	x	4%	1	u	-0.1	-2.2	0.0	4
CCOc1ccccc1OCC(=O)NN=C1CCCC(=O)C1	-36	11%	-4	x	-0.4	-0.9	x	x
COc1ccc2c(c1)OC[C@H]1[C@H]2N2C(=O)CN(Cc3ccc(F)cc3)C(=O)[C@@]2(C)[C@H]1c1ccccc1	3.6	x	1	x	0.2	8.0	x	x
COc1ccc(C(=O)N2CCN(c3ccc(C)cc3C)CC2)cc1OC	1.4	5%	-20	-5	0.2	-2.2	0.8	8
CCCCCc1ccc(OCCCC[n+]2ccc(C)cc2)c(CCCCC)c1	u	x	111*	x	0.2	7.9	2.5	98*
c1ccc2c(c1)NCCS2	4.4	6%	2	5	0.2	-1.8	-5.3	-12
OC(COCc1cccs1)CN1CCCCCC1 (stereo not given)	x	-4%	0	13	1.6	3.4	1.9	1
Fc1ccc(CSc2nnc(-c3cccnc3)n2Cc2ccco2)cc1	x	18%	0	-15	-0.1	-2.6	-1.1	u
COc1ccccc1N1CCN(C2CCCN(C(=O)c3ccoc3C)C2)CC1 (stereo not given)	1.2	x	-9	-7	0.3	1.7	2.1	4
COCCCN(C(=O)CCOc1ccc(C(C)(C)C)cc1)c1c(N)n(Cc2ccccc2)c(=O)[nH]c1=O	5.6	-1%	-2	4	-0.3	-21	1.1	6
CCCCN1CC(=O)N2[C@H](c3ccc(OC)cc3)[C@@H]3C(=O)N(CC)C(=O)[C@@H]3[C@]2(C)C1=O	x	x	-3	-20	0.3	-1.0	-2.1	-10
COCC(=O)N1CCCC(C(=O)c2ccc(-c3ccccc3)cc2)C1 (stereo not given)	1.1	x	1	1	-0.8	-1.5	-2.5	-6
COc1ccc(C)cc1NC(=O)C1CCN(S(=O)(=O)c2cccs2)CC1	1.9	x	2	1	0.5	0.1	0.0	3
O=C(c1cccc(N2C(=O)C3C4C=CC(C4)C3C2=O)c1)N1CCN(c2ccc(F)cc2)CC1 (stereo not given)	1.6	x	4	-1	-0.2	11	-1.1	-7
Cc1ccc(C)c(S(=O)(=O)NCc2ccncc2)c1	x	0%	9	1	0.4	-2.9	-3.8	u
CC1(C)CC(=O)C2=C(C1)OC(N)=C(C#N)C2c1cc2c(cc1[N+](=O)[O-])OCO2 (stereo not given)	-0.6	x	3	9	-0.2	i	-18	-9
O=C(CNC(=O)c1ccccc1F)NCCN1C(=O)S/C(=C\c2ccc3c(c2)OCO3)C1=O	-0.2	x	5	x	-1.1	28*	x	x
COc1ccc(C2=CC(c3ccc(OC)c(OC)c3)n3nnnc3N2)c(OC)c1 (stereo not given)	x	3%	2	-8	-0.1	-1.2	-1.6	u

Exported with two lines to a compound: entries from further up.
Sequence of screens – AF4-AF9 inh | Vif TR-FRET | Beta cell apopt | T cruzi repl | Bfl-1 A1 inh | LANA-H2A inh | RanGTP-Imp inh | Calb FLC
COc1ccccc1N1CCN(C2CCCN(C(=O)c3ccoc3C)C2)CC1 (stereo not given)
    1.2 | x | -9 | -7 | 0.3 | 1.7 | 2.1 | 4
COCCCN(C(=O)CCOc1ccc(C(C)(C)C)cc1)c1c(N)n(Cc2ccccc2)c(=O)[nH]c1=O
    5.6 | -1% | -2 | 4 | -0.3 | -21 | 1.1 | 6
CCCCN1CC(=O)N2[C@H](c3ccc(OC)cc3)[C@@H]3C(=O)N(CC)C(=O)[C@@H]3[C@]2(C)C1=O
    x | x | -3 | -20 | 0.3 | -1.0 | -2.1 | -10
COCC(=O)N1CCCC(C(=O)c2ccc(-c3ccccc3)cc2)C1 (stereo not given)
    1.1 | x | 1 | 1 | -0.8 | -1.5 | -2.5 | -6
COc1ccc(C)cc1NC(=O)C1CCN(S(=O)(=O)c2cccs2)CC1
    1.9 | x | 2 | 1 | 0.5 | 0.1 | 0.0 | 3
O=C(c1cccc(N2C(=O)C3C4C=CC(C4)C3C2=O)c1)N1CCN(c2ccc(F)cc2)CC1 (stereo not given)
    1.6 | x | 4 | -1 | -0.2 | 11 | -1.1 | -7
Cc1ccc(C)c(S(=O)(=O)NCc2ccncc2)c1
    x | 0% | 9 | 1 | 0.4 | -2.9 | -3.8 | u
CC1(C)CC(=O)C2=C(C1)OC(N)=C(C#N)C2c1cc2c(cc1[N+](=O)[O-])OCO2 (stereo not given)
    -0.6 | x | 3 | 9 | -0.2 | i | -18 | -9
O=C(CNC(=O)c1ccccc1F)NCCN1C(=O)S/C(=C\c2ccc3c(c2)OCO3)C1=O
    -0.2 | x | 5 | x | -1.1 | 28* | x | x

Further structures follow:
SMILES	AF4-AF9 inh	Vif TR-FRET	Beta cell apopt	T cruzi repl	Bfl-1 A1 inh	LANA-H2A inh	RanGTP-Imp inh	Calb FLC
O=C(Nc1ccc2c(c1)OCO2)C1CC(=O)N(CCc2ccccc2)C1 (stereo not given)	4.9	-2%	-4	-1	0.3	2.4	-2.1	30
O=C1N[C@@H](c2ccccc2)COC(=O)[C@@H](Cc2ccc(F)cc2)C/C=C\C[C@@H]1CC(=O)N(CCO)Cc1ccccc1	4.6	x	7	x	0.2	-10	x	x
COc1cc(C(=S)N2CCN(c3cccc(Cl)c3)CC2)ccc1O	-0.4	-12%	2	-7	0.9	1.3	-1.2	-8
CCC(C)c1cc(S(=O)(=O)N2CCOCC2)ccc1OC (stereo not given)	x	31%	-5	x	0.5	-1.7	x	x
CC(C)CCNC(=O)C(c1cccs1)N(CC1CCCO1)C(=O)Cn1nnc2ccccc21 (stereo not given)	x	-3%&-12%	-4	1	0.2	-0.5	5.0	23
CCN(CCn1cccn1)C(=O)CC1C(=O)NCCN1Cc1ccc(OC)c(OC)c1 (stereo not given)	-0.1	x	0	-16	0.2	-7.6	-1.8	-18
Cc1ccccc1NC(=O)CC1SC(=NC2CCCCC2)NC1=O (stereo not given)	x	-3%	-5	x	2.0	1.0	-1.6	2
O=C(Oc1ccc(NC2=C(Cl)C(=O)c3ccccc3C2=O)cc1)c1ccc([N+](=O)[O-])cc1	x	3%	x	63*	x	x	-2.3	u
COc1ccc(S(=O)(=O)Nc2cc3c4c(c2)C(C)C(=O)N4CCC3)cc1OC (stereo not given)	x	16%	-3	9	-0.3	-2.2	-0.6	-4
CC(=O)Nc1ccc(S(=O)(=O)NC(CC(=O)NC2CCCCC2C)C(C)C)cc1 (stereo not given)	x	-3%	3	-1	-0.2	3.3	1.2	-1
CC(OC(=O)c1ccccc1Nc1ccc(SC(F)F)cc1)C(N)=O (stereo not given)	x	x	2	-37	-0.1	-1.9	2.6	3
COc1ccc(S(=O)(=O)N2CCC(C(=O)NCCOc3ccccc3F)CC2)cc1OC	2.2	-8%	4	x	0.6	-0.2	x	x
Cn1c(=O)[nH]c(=O)c2c1nc(Br)n2CCSc1nnnn1-c1ccccc1	-9.5	1%	2	-2	0.4	-5.6	3.9	2
CCN(CC)CCN1C(=O)c2oc3ccccc3c(=O)c2C1c1cccc(Br)c1 (stereo not given)	x	-2%	-1	-5	0.7	1.0	-4.0	0
Cc1cccc(C)c1NC(=O)N1CCCCCCC1	-0.8	7%	-2	-5	-0.1	-0.3	x	0
CC(C)NC(=O)CSCc1cccc(Br)c1	-9.1	-2%	-4	-8	1.2	-1.3	-3.1	3
CCC/C=N/NC(=O)c1cccc(Br)c1	-0.7	9%	-1	7	-0.8	-10.0	5.9	-22
Cc1ccc(NC(=O)CN2C(=O)C3CC=CCC3C2=O)cc1S(=O)(=O)N1CCOCC1 (stereo not given)	0.1	x	-3	-4	-0.9	6.6	-1.1	-2
O=C(CN1C(=O)COc2ccccc21)NCCN1CCC(Cc2ccccc2)CC1	x	4%	5	45	-0.5	17	-0.1	-3
CC1=NNC(=O)C1CCC(=O)N/N=C/c1c(Cl)cccc1Cl (stereo not given)	1.9	-2%	-3	0	1.2	-6.2	-0.3	-2
CC(C)OCCCNC(=O)NC12CC3CC(CC(C3)C1)C2	x	-8%	4	-13	0.0	6.5	1.8	-5
COCCNC(=O)c1ccc(-c2csc(C)n2)cc1	-2.9	9%	-2	2	-3.3	-1.8	2.1	-15
COc1nc(N)nc(NC23CC4CC(CC(C4)C2)C3)n1	x	0%	-4	3	-0.8	6.0	-1.1	-2
COc1ccc(OC)c(-n2c(-c3cc(-c4ccc(F)cc4)n[nH]3)n[nH]c2=S)c1	x	0%	-6	2	-0.6	-1.0	0.6	3
CCN(CC(=O)NC(C)(C)C)Cc1nc2c(Br)cc(Br)cc2c(=O)[nH]1	-7.3	-14%	x	15	x	x	-3.4	11
CCOc1cc(/C=N/NC(=O)C(OC)c2ccccc2)ccc1O (stereo not given)	-2.0	x	-3	-6	-0.6	-12	-1.0	9
O=C(CCC(=O)c1ccccc1)NCCc1c[nH]c2ccccc12	0.7	-4%	-1	-6	-0.1	0.6	2.0	4
Cc1cc(C)cc(-n2nnc(C(=O)NCc3ccccc3Cl)c2N)c1	x	32%	-1	28	1.0	-0.6	-4.4	-3
C[C@@H]1CCC[C@@]2(O[C@H](CCO)C[C@H](O)[C@H]2O)O1	x	x	-4	-2	1.7	-1.0	u	-2
COc1ccc(CCNC(=O)C2CCCN2S(=O)(=O)c2ccc(F)cc2)cc1OC (stereo not given)	-4.4	x	-4	1	0.4	7.2	-0.4	-31
Cc1nn(C(C)(C)C)c(OC(=O)c2cccs2)c1S(=O)(=O)c1ccccc1	x	3%	-2	5	1.9	-0.3	u	-3
COc1ccc(OC)c(-c2cc(C(=O)NCCN3CCOCC3)no2)c1	-13	-3%	-2	-11	1.0	-1.7	3.2	-3
CCC(C(=O)OCC(=O)Nc1ccc(C(N)=O)cc1)c1ccccc1 (stereo not given)	-1.4	-11%	-2	2	0.6	-0.8	-2.7	-3
COc1ccc(OC)c(/C=C/C(=O)OCC(=O)Nc2ccc3c(c2)OCCO3)c1	x	x	0	6	-0.5	1.6	1.0	-14
CCOCCCN1C(=O)C2C(C(=O)Nc3ccc(OCC)cc3)C3C=CC2(O3)C1C(=O)NC1CCCCC1 (stereo not given)	x	x	0	1	0.5	3.0	2.6	-12
